Assay outcomes as filed in PubChem.
KAT2A inh: GCN5L2 (KAT2A) acetyltransferase inhibition. Q92830. GCN5L2 HAT assay, ThioGlo1 CoA-SH fluorescence. Potency, µM (doses to about 58.9 µM), for the others: top-dose activity change, negative = inhibition, actives largely listed as inhibitors. hit rate 0.21% among 390,000. AID 504327
Target sequence (Q92830 whole entry, looked up): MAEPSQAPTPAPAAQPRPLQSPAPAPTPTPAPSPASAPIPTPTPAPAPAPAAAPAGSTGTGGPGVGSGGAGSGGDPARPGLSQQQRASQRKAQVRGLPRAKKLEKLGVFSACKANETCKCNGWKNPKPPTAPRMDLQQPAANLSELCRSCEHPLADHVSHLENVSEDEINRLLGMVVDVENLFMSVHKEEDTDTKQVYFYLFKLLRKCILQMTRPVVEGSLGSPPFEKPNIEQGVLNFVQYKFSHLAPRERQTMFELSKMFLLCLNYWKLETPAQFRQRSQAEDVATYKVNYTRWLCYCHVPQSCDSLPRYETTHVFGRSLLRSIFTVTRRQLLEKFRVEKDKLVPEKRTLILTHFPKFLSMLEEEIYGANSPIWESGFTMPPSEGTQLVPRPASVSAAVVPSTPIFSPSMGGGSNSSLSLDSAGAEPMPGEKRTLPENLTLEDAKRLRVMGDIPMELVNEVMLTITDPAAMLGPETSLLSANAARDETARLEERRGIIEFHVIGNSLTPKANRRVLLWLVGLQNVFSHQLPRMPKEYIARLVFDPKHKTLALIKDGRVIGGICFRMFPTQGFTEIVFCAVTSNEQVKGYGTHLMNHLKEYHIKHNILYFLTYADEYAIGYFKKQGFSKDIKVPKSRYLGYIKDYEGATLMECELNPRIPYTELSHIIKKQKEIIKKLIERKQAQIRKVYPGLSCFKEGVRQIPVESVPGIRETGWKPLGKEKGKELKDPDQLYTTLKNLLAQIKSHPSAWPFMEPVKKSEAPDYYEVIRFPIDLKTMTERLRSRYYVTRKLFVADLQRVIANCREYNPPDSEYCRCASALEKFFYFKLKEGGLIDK
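Free CoA generated was detected with ThioGlo1 (50uM) fluorescence at Ex340nm/Em540nm, read immediately and after 20 min at room temperature. Enzyme, 20 nM in HEPES pH 7.5 buffer, saw compounds 15 min before adding 75uM H3(1-25) peptide and 70uM acetyl-CoA.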
FEN1 inh: blocks human flap endonuclease 1 | P39748 | Recombinant FEN1 flap cleavage, fluorescence, 15 min | Potency, µM (highest dose often 114 µM), for the others: at the top dose activity change, negative = inhibition, most hits filed as inhibitors | hit rate 0.35% among 390,000 | AID 588795; also: nearly all actives have a fitted effect of over 65% in size
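Recombinant FEN1 (10 nM) was preincubated with pin-transferred compounds for 15 min at room temperature, then flap DNA substrate (50 nM final) was added. Plates were read at 0 and 15 min, and normalized concentration–response data were fitted to a four-parameter Hill equation.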
An asterisk follows results filed as active; ? = inconclusive; · = no result given; & = joins results of further samples; [ ] = remark or other dose. Calls follow the shape of the dose curve; as a rule, active = well fitted curve in the direction sought with a large enough effect; inconclusive = small, poorly fitted or top-dose-only effect, or another doubt; inactive = no such curve, though single readings can be large; an effect the other way counts as inactive or inconclusive. % is scaled to controls: 0 for no effect and ±100 for the full control effect; potency is read from the fitted curve at half-maximal effect.

Sample of the layout, 2 compounds:
Molecule,KAT2A inh,FEN1 inh
CCCC(C)C(=O)Nc1ccccc1C(=O)OCC (configuration not stated),-19%,1%
COc1cc(CC(=O)N(CC(C)C)C2CCS(=O)(=O)C2)cc(OC)c1OC (configuration not stated),-2%,1%

This part in full, from the start:
Molecule,KAT2A inh,FEN1 inh
CCCC(C)C(=O)Nc1ccccc1C(=O)OCC (configuration not stated),-19%,1%
COc1cc(CC(=O)N(CC(C)C)C2CCS(=O)(=O)C2)cc(OC)c1OC (configuration not stated),-2%,1%
CCc1cccc(C)c1NC(=O)CSc1nc2ccccc2nc1N1CCOCC1,-9%,12%
O=C(Nc1ccccc1)c1cc([N+](=O)[O-])ccc1Cl,-3%&-1%,20%[57.1 µM]
CN(C(=O)COc1ccccc1C(=O)NCCc1ccccc1)c1ccccc1,-1%,-2%
O=c1[nH]ncc(NCCc2ccccc2)c1Cl,-1%,-2%
CC1Oc2ccccc2N(CC(=O)c2ccc(F)cc2)C1=O (configuration not stated),-10%,-8%
CCOC(=O)c1sc(C)c2c(=O)n(Cc3ccc(Cl)cc3)cnc12,-2%,1%
Cc1ccccc1CS(=O)(=O)CC1Nc2ccc(C(=O)NCc3ccc(Cl)cc3)cc2NC1=O (configuration not stated),21%,10%
CC12CCC3c4ccc(O)cc4CCC3C1CCC2=O (configuration not stated),-23%,-3%
CC(=O)OC(C)[C@H]1CC[C@H]2[C@@H]3CC[C@H]4C[C@@H](OC(C)=O)CC[C@]4(C)C3=CC[C@]12C (some centres not stated),-7%,13%
COc1ccc([C@H]2[C@H](C(=O)C(C)(C)C)N3N=Cc4ccccc4C3[C@]23N=C(c2ccccc2)OC3=O)cc1 (some centres not stated),-5%,-4%
CC(C)c1nnc(NC(=O)CCC(=O)N2CCN(c3ccccn3)CC2)s1,?,-9%
Cc1cccc(NC(=O)CSCC(=O)NCc2cccc(C(F)(F)F)c2)c1,4%,-10%
CCOc1ccccc1C(=O)Nc1cccc(-c2nnc(-c3ccccc3)o2)c1,-1%,-2%
Nc1cccc(-c2cc(-c3ccccc3)nc(-c3cccc(N)c3)n2)c1,-4%,-6%
CSc1ccc(CN(C)C(=O)C2CCN(C(=O)Nc3ccccc3)CC2)cc1,-3%,5%
COc1ccc(/C=C(\NC(=O)c2cccs2)C(=O)Nc2ccc(C)cc2)cc1OC,-4%,7%
O=C(C1CCC1)N1CCc2cc(S(=O)(=O)NC3CCCc4ccccc43)ccc21 (configuration not stated),-12%,-3%
COC(=O)c1cnn(-c2ccc(Cl)cc2)c1/C=N/NC(N)=S,1%,6%
CCCCOC(=O)Nc1nnc(CC)s1,-2%,-7%
COC(=O)c1ccc(C#Cc2ccccc2)o1,-6%,-19%
Cc1ccc(C)c(OCc2ccc(C(=O)N3N=C(C(F)F)CC3(O)C(F)F)o2)c1 (configuration not stated),-1%,-1%
CC(CCl)OC(C)CCl (configuration not stated),-12%,-2%
O=C(Nc1cccc(C(=O)OCc2cc(=O)n3c4c(sc3n2)CCCC4)c1)c1cccc(F)c1,-11%,-1%
C=CCn1c(C)cc(C2=NNC(=NCc3ccccc3)SC2)c1C,-7%,1%
CCn1cc(C2=NC(C)(C)CO2)c2ccccc21,1%[0.501 µM],-16%
CC1CCN(S(=O)(=O)c2ccc3c(ccn3CC(=O)NCc3ccc(N(C)C)cc3)c2)CC1,-2%,9%
CC1=NN(C(=O)c2ccccc2-n2cccc2)C(O)(C(F)(F)F)C1 (configuration not stated),-4%,1%
O=C(CN1C(=O)C2C3c4ccccc4C(c4ccccc43)C2C1=O)Nc1cccc(C(=O)O)c1 (configuration not stated),-6%,0%

2 records drawn at random from those above, as already listed:
Molecule,KAT2A inh,FEN1 inh
CCOC(=O)c1sc(C)c2c(=O)n(Cc3ccc(Cl)cc3)cnc12,-2%,1%
Cc1ccccc1CS(=O)(=O)CC1Nc2ccc(C(=O)NCc3ccc(Cl)cc3)cc2NC1=O (configuration not stated),21%,10%

Other results.
Molecule,KAT2A inh,FEN1 inh
Cc1cccc(/C=N/NC(=O)Cn2nccc2C)n1,-6%,-6%
Cc1nn(C)c2c1c(C(F)(F)F)cc(=O)n2C(C)C(=O)NCc1ccc(Cl)cc1 (configuration not stated),-11%,-10%
CCCCOc1ccc(-c2nc(-c3cccnc3)no2)cc1,-15%,-11%
Cc1ccc(NC(=O)CN(C)C(=O)Cc2c[nH]c3ccccc23)cc1,1%,12%
NC(=O)C1(N2CCCCC2)CCN(C(=O)c2ccccc2)CC1,-6%,-1%
CCOC(=O)c1cnc(-n2nc(C)cc2C)nc1NNc1ncc(-c2ccccc2)cn1,-4%,-4%
Cc1cccc(C)c1OCc1cc(C(=O)N2CCCCCCC2)no1,-18%,-1%
Cc1noc(C)c1C(=O)Nc1ccc(F)cc1,-4%,9%
N#Cc1cc(Oc2cccnc2)c(Oc2cccnc2)cc1C#N,-2%,-12%
Cc1ccc(S(=O)(=O)NCC(=O)OCC(=O)N2CC(C)OC(C)C2)cc1 (configuration not stated),0%,-4%
CC1CCN(CC(=O)c2cccs2)CC1,1%,-1%
CCCCC(=O)NCCc1ccc(OC)cc1,-8%,-1%
O=[N+]([O-])c1ccc(-c2cn3c(n2)CCC3)cc1,-2%,13%
N#Cc1c[nH]n2c(=O)c3c(nc12)CCC3,-3%,-14%
CC1CC(C)CN(C(=O)C(Cc2ccccc2)NC(=O)c2ccccc2)C1 (configuration not stated),-7%,-7%
COc1ccc(S(=O)(=O)N2CCC(Oc3cccc(C(F)(F)F)c3)CC2)cc1OC,-3%,-7%
CC1(C)NC(=O)N(CC(=O)N2CCN(S(=O)(=O)c3ccccc3C(F)(F)F)CC2)C1=O,-9%,-2%
Cc1cccc(Cl)c1NC(=O)N1CCCN(c2nc3ccc(Cl)cc3s2)CC1,-7%,11%
CC(C)CCN(CCC(C)C)CC(O)Cn1c2ccccc2c(=O)c2ccccc21 (configuration not stated),-3%,9%
CCc1cccc(NC(=O)c2cnc(SC)nc2-c2ccccc2)c1,-11%,0%
Cc1ccc([N+](=O)[O-])c(OCCN2CCCCCC2)c1,-2%,16%
CCc1ccc(NC(=O)CN2CCCN(S(=O)(=O)c3ccc(F)cc3)CC2)cc1,-6%,-17%
CC(=O)Nc1ccc(OCC(O)CN2CCN(S(=O)(=O)c3ccc(NC(C)=O)cc3)CC2)cc1 (configuration not stated),-7%[0.501 µM],-7%
CC(C)(C)OC(=O)C[C@@H]1C/C=C\C[C@H](CC(=O)N[C@H](CO)Cc2ccccc2)C(=O)N2CCC[C@H]2COC1=O,-5%,-1%
CCC1=C(OC(=O)c2ccccc2)C(C)(C)C(c2ccccc2)OC1=O (configuration not stated),0%,-3%
COc1cccc(-n2nnnc2SCC(=O)c2ccc(NC(C)=O)cc2)c1,-4%,-3%
COc1ccc(N2CCN(C(=O)Cn3cnc4c3c(=O)n(C)c(=O)n4C)CC2)cc1,-8%,5%
O=C(NCCCN1CCCC1=O)C1CCN(S(=O)(=O)N2CCOCC2)CC1,1%,3%
Cc1nn(CCC#N)c2nc(-c3ccccc3)cc(C(F)(F)F)c12,-5%,-14%
Cc1ccccc1C(=O)Nc1nnc(SCC(=O)NC2CC2)s1,-2%,6%
CCOc1ccc(CC(=O)NC2CC(C)(C)N(C)C(C)(C)C2)cc1OCC,0%,25%
O=C(CCc1ccccc1)Nc1cc2c(cc1Cl)OCCO2,-1%,-8%
O=C(COC(=O)c1cccc(Cl)c1Cl)NCCN1C(=O)CSC1=O,-2%,6%
Cc1c(C(=O)N2CCN(c3ncccn3)CC2)sc2nc3n(c(=O)c12)CCCC3,·,7%
CCOc1ccc(CC2CC(=O)NC2=O)cc1 (configuration not stated),1%,-1%
CC(CC(=O)NCc1cccnc1)c1ccccc1 (configuration not stated),-3%,5%
Cc1noc(C)c1S(=O)(=O)N(CC(=O)Nc1ccc2c(c1)OCO2)c1ccc(C(C)C)cc1,-7%,3%
COc1ccc(NC(=O)/C(C#N)=C\c2cc(C)n(-c3ccc4c(c3)OCO4)c2C)cc1,-12%,-5%
COc1ccc(-c2nc(NC(=O)CSCCO)sc2C)cc1,-1%,9%
Cc1nn(-c2ccccc2)nc1C(=O)NN,-5%,17%
O=C(c1cc2cc3ccc(Cl)cc3nc2o1)N1CCCCCC1,0%,-8%
CN(C)CCNC(=O)C(=O)NCC1OCCN1S(=O)(=O)c1cc(F)ccc1F (configuration not stated),5%,0%
O=[N+]([O-])C(/C=C(\Cl)[N+](=O)[O-])=C(N1CCCCC1)N1CCCCC1,-12%,-3%
COc1cccc(N2CCN(CC(=O)Nc3ccnn3C3CCCC3)CC2)c1,-5%,20%
[O-][N+]12CCCCC1CCCC2CO (configuration not stated),-5%,-11%
O=c1[nH]c(CSc2ncnc3sccc23)nc2cc(C(F)(F)F)ccc12,16%,0%
COc1ccc(OCC(=O)NNC(=O)c2ccccn2)cc1,-13%,5%
Cc1ccc(CSCCNC(=O)C2CCN(S(=O)(=O)Cc3ccccc3)CC2)cc1,-3%,14%
Nn1c(SCC(=O)N2CCCCC2)nnc1-c1ccncc1,-1%,-1%
N=C1SCC(=O)N1c1ncc(Cc2ccc(F)cc2)s1,2%,-6%
Cc1ccc(C(=O)Oc2ccc([N+](=O)[O-])cc2)cc1S(=O)(=O)N1CCCCCC1,-23%,-12%
CC(=O)N1CCc2cc(S(=O)(=O)CCC(=O)NCc3ccc(F)cc3)ccc21,-5%,-16%
O=C(Cn1ncc2c3ccccc3n(Cc3ccccc3F)c2c1=O)N1CCCCC1,-7%,10%
COc1ccc(COc2cc(-c3cccc(OC)c3)nc3ccc(NC(=O)c4ccccc4)cc23)cc1,-9%&-15%,-18%
COc1ccc(S(=O)(=O)N2CCN(C(=O)COc3ccccc3)CC2)cc1,-1%,-11%
COc1ccc(C(=O)C[n+]2ccc(C)cc2)cc1,3%,-1%
CCn1c(SCC(=O)Nc2ccccc2)nc2nc3c(cc2c1=O)COC(C)(C)C3,0%,12%
CC(C)(C)OC(=O)NCCCC[C@H](NC(=O)c1nc[nH]c1C(=O)NC1CCN(C(=O)OC(C)(C)C)CC1)C(=O)OC(C)(C)C,0%,?
Cn1cc(CN(CCCN2CCOCC2)C(=S)Nc2cccc(Cl)c2)c2ccccc21,-4%,-7%
Cc1ccc(Cl)cc1NC(=S)N1CCCCCC1,1%,-11%

Remaining list, next part.
Every second line gives: KAT2A inh	FEN1 inh
COc1ccc(NS(=O)(=O)NC(=O)c2c[nH]c3ccccc23)cc1
  -3%	23%
O=C(NCc1n[nH]c(=S)n1-c1ccccc1Cl)c1ccc(S(=O)(=O)N2CCCCC2)cc1
  -7%	16%
Cc1ccc(S(=O)(=O)N2CCN(C(=O)c3n[nH]c4ccccc34)CC2)cc1
  -13%	12%
O=C(CSc1nnc(-c2ccccc2Cl)o1)Oc1ccc(Br)cc1
  -4%	7%
O=c1ccnc(SCCC(F)=C(F)F)[nH]1
  -1%	-14%
COc1ccc(CNC(=O)COC(=O)c2cc(-c3cccs3)nc3ccccc23)cc1OC
  ?	18%
COc1ccc(NC(=O)NNC(=O)c2ccc(Cl)cc2Cl)cc1OC
  -4%	-1%
Cc1cc2oc(=O)cc(CSc3nnc(C)n3N)c2cc1C(C)C
  -11%	-3%
COC(=O)c1cc2oc3ccccc3c2n1CC(=O)Nc1ccc(N(C)C)cc1
  0%	-1%
COc1ccc(CCNC(=O)CS(=O)Cc2nc(-c3ccc(C)cc3)oc2C)cc1OC (configuration not stated)
  -3%&-2%	-1%&15%
CN(C)c1ncc(CN2CCC(C(=O)Nc3ccc(-n4cccn4)cc3)CC2)s1
  -3%	13%
Nc1cccc2cnccc12
  -6%	5%
Cc1cc(C)c2[nH]c(=O)c(CN(Cc3ccco3)C(=S)NCC3CCCO3)cc2c1 (configuration not stated)
  1%	4%
O=C(c1ccc2nc(N3CCOCC3)sc2c1)N1CCN(c2ccc(Cl)cc2)CC1
  -6%	-3%
CCc1ccc(N(CC)C(=O)c2ccc3c(Cl)c4c(nc3c2)CCC4)cc1
  -7%	-10%

An excerpt from above in order of molar mass, lowest first.
Every second line gives: KAT2A inh	FEN1 inh
Cc1cc2oc(=O)cc(CSc3nnc(C)n3N)c2cc1C(C)C
  -11%	-3%
COC(=O)c1cc2oc3ccccc3c2n1CC(=O)Nc1ccc(N(C)C)cc1
  0%	-1%
COc1ccc(CCNC(=O)CS(=O)Cc2nc(-c3ccc(C)cc3)oc2C)cc1OC (configuration not stated)
  -3%&-2%	-1%&15%

(next part)
Every second line gives: KAT2A inh	FEN1 inh
CC(C)NC(=S)N(CCc1ccncc1)C(C)C
  -6%	-4%
CC(=O)c1c(C(C)=O)c(C)n(-c2cccc3cccnc23)c1C
  -2%	-3%
CCCCn1c(N)c(N(CCC(C)C)C(=O)COC(=O)c2ccc([N+](=O)[O-])s2)c(=O)[nH]c1=O
  1%	-17%
CN(Cc1ccccc1)C(=O)c1ccc(NC(=O)Cc2cccc([N+](=O)[O-])c2)cc1
  -4%	-14%
O=S(=O)(c1ccc(-c2csc(Nc3ccc(Br)cc3)n2)cc1)N1CCCC1
  -7%	3%
CN(C)CCCN(C(=O)C1COc2ccccc2O1)c1nc2cc3c(cc2s1)OCO3 (configuration not stated)
  -2%	-15%
CCCCCc1c(C)nc(N2CCc3ccccc32)[nH]c1=O
  -5%	-2%

The list is partial; most or all hits stand in other tables.
